T cruzi inh = T. cruzi replication inhibition | inhibition, % (concentration not given with the values) | T. cruzi beta-gal in NIH3T3, luminescence, 90 h | 300,000 tested, 1.4% active;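 active = mean inhibition across valid replicates above about 55%, limit read from the data; inconclusive = mean below that limit but half or more replicates reach it; inactive = mean below it, under half of replicates reach it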;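 also: signal also drops with host cell toxicity which is not excluded here; 0% = plate median of DMSO wells and 100% = zero luminescence signal; higher percent means less beta-gal luminescence so fewer parasites; stock transfer was 50 nL into about 50 µL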
LANA-H2B inh = blocks KSHV LANA binding to histone H2A/H2B. cell-free LANA-H2A/H2B peptide, fluorescence polarization. inhibition, % (concentration not given with the values). 320,000 tested, 0.6% active. AID 2629; in the data active = inhibition mostly above about 10%, no sharp cut-off; inactive = mostly below about 6.7%;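 also: stock transfer was 7.5 nL into about 10 µL; 0% = median of vehicle wells and 100% = median of positive control wells; one replicate is shown; the record names a cut of 25% in any replicate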
Bfl-1 A1 inh = inhibitors of the anti-apoptotic protein A1, read as caspase activation | MEF A1-2A-BIM cells, Caspase-Glo 3/7 luminescence, 3 h; percent of clofoctol response, vehicle zero | caspase activation, % (no concentration beside the values) | 330,000 tested, 0.066% active;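 active = over half of replicate activation scores above 10%, or exactly half above 10 with the replicate mean above 10; inconclusive = replicate mean below 10 yet half the replicates above 10; inactive = over half of replicates below 10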;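 also: wells of about 30 µL received 50 nL stock; many hits fall short of the cut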
ALR inh = inhibitors of human sulfhydryl oxidase ALR | 290,000 tested, 3.8% active | AID 485317 | purified ALR, DTT oxidation, H2O2 HRP-luminol luminescence | inhibition, % (test concentration not listed) | P55789;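 active = mean and each replicate at 75% or more; inconclusive = only one of the two met; inactive = neither met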;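 also: stock transfer was 7.5 nL into about 7.5 µL; 0% = neutral wells and 100% = wells with inactivated enzyme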
Target sequence (P55789 whole entry, looked up): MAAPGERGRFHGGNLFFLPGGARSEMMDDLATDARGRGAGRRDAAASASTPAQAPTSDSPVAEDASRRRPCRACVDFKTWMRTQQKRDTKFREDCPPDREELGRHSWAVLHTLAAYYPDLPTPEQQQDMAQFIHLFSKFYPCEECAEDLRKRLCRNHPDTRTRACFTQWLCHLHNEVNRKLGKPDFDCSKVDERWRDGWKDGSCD
Ecoli rRNA inh = inhibits bacterial ribosomal RNA function over humanized ribosomes; E. coli WT GFP vs humanized-ribosome RFP mutants, fluorescence, 24 h; stronger effect = lower value; DMSO median 0, no signal -100; GFP signal change (wild-type ribosome), % (test concentration not listed); 350,000 tested, 1.6% active;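 active = significant combined selectivity score with lowered wild-type GFP, culture density cut under 30%, mutant RFP and density less affected; inactive = any of these conditions unmet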; also: one replicate is shown; some compounds called inactive have numbers as strong as hits
Beta apoptosis = blocks beta cell apoptosis; INS-1E cytokine-induced death, ATP luminescence, 48 h; percent of positive-control rescue, neutral wells zero; protection from apoptosis, % (test concentration not listed); 300,000 tested, 0.8% active; AID 435005;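 active = all replicates at 75% or more, or half of them and the mean; inconclusive = half reach 75% but not the mean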;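 also: 0% = cytokine-treated negative control wells and 100% = positive control rescue; higher means more ATP so stronger rescue from cytokine killing; wells of about 40 µL received 100 nL stock; the first replicate is given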
Calb FLC = C. albicans growth modulation with fluconazole; C. albicans CaCi-2 (fluconazole-resistant clinical isolate) + fluconazole, Alamar Blue growth, 48 h; 300,000 tested, 0.57% active; growth inhibition, % (test concentration not listed); AID 1979;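 active = most replicates above 75%; inconclusive = exactly half above 75%; inactive = most below 75%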;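 also: all wells also contain fluconazole at 8 µg/ml as a sub-toxic cotreatment; 0% = median of DMSO wells and 100% = median of geldanamycin control wells; wells of about 8 µL received 7.5 nL stock; the first replicate is given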
B2AR ag = human beta-2 adrenergic receptor agonism by FAP; P07550; Am2.2-beta2AR cells, FAP receptor internalization, flow cytometry; reference of the scale not given here; response, % (no concentration beside the values); 340,000 tested, 0.43% active;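 active = response above a set limit, near 3 SD of response in nonfluorescent compounds, cut at about 42% in these data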;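 also: stock transfer was 100 nL into about 11 µL; a reference agonist was the positive control; negative values mostly stem from fluorescent compounds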
Target sequence (P07550 whole entry, looked up): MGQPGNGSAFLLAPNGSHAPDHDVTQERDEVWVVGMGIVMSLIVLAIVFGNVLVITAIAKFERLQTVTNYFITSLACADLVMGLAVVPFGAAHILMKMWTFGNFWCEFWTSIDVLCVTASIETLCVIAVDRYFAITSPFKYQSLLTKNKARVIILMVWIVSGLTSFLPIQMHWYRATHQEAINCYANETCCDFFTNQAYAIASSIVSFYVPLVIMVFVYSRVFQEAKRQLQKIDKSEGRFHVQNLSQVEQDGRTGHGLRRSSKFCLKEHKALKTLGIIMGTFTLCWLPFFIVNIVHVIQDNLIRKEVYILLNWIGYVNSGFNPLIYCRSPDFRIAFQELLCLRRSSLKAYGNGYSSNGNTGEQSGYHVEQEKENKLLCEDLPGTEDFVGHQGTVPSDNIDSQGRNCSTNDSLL
Ecoli rRNA inh OD600 = recorded beside Ecoli rRNA inh, whose call it bears; OD600 change, %; measured here: OD600 growth;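 optical density of the mix in the first replicate; 0 = DMSO median and -100 = no signal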
Ecoli rRNA inh RFP = further read-out of Ecoli rRNA inh, marked with its call; RFP signal change, %; measured here: RFP humanized mutant strains;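 first replicate; 0 = DMSO median and -100 = no signal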
An asterisk follows results filed as active; ? = inconclusive; . = not tested or not shown; + = active, no number.

SMILES,B2AR ag,Ecoli rRNA inh RFP,Bfl-1 A1 inh,LANA-H2B inh,T cruzi inh,Ecoli rRNA inh,Beta apoptosis,Calb FLC,Ecoli rRNA inh OD600,ALR inh
CCn1cc([N+](=O)[O-])c(C(=O)Nc2ccn(C34CC5CC(CC(C5)C3)C4)n2)n1,-12,.,0.3,-2.6,-3,.,.,-12,.,-4
CCN(CC)Cc1c(C(=O)N/N=C/c2cccnc2)nnn1-c1nonc1N,0,1.5,-0.7,2.7,-2,9,0,0,10,.
CCN(CC)C(=O)Cn1cc(C(=O)C(=O)NCCCN2CCOCC2)c2ccccc21,1,0.6,-0.3,-1.0,2,11,-4,-1,11,-10
S=C(NCc1cccs1)Nc1ccc(Br)cc1Cl,-4,-24,-0.8,-1.9,1,-60,-6,-50,-79,.
O=C(OCc1ccc([N+](=O)[O-])cc1)c1cc(S(=O)(=O)N2CCCCC2)ccc1N1CCOCC1,-2,-1.1,0.2,3.4,24,5,15,1,1,-1
CCCC(=O)N1c2ccccc2NC2=C(C(=O)CCC2)C1c1ccc(F)cc1 (centres undefined),7,.,-0.2,0.4,-7,.,.,-9,.,-8
Cc1cc(C)nc(N/N=C/C2=C(O)CC(c3ccccc3)CC2=O)n1 (centres undefined),.,3.2,0.6,1.7,2,13,22,-2,11,-4
CC(OC(=O)Cn1cnc2c1c(=O)n(C)c(=O)n2C)C(=O)Nc1ccc(Cl)cc1 (centres undefined),0,0.6,-0.2,-8.7,0,2,-1,2,-1,14
CCSc1nc2c(c(=O)n1Cc1ccccc1)SC(C)C2 (centres undefined),-4,.,-0.1,-0.9,17,.,0,-1,.,4
O=C(Nc1ccccc1)Nc1cccc(Cl)c1,4,.,0.2,-0.3,.,.,14,?,.,-1
COC(=O)c1sc(NC(=O)c2cnccn2)c(C(=O)OC)c1C,.,.,0.4,2.8,5,.,3,1,.,-6
N#Cc1nc(-c2ccc(Cl)cc2)oc1NCc1cccc2c1OCO2,-1,.,-1.3,-0.8,-3,.,2,3,.,0
Cc1cccc(Oc2cc(NC(=O)c3ccccc3)cc([N+](=O)[O-])c2)c1,5,.,1.1,3.0,22,.,100*,0,.,-6
CC(=O)c1c(C)[nH]c(C(=O)OCC(=O)Nc2c(C)cccc2C)c1C,4,-1.4,-1.4,-2.6,.,9,22,.,6,.
CCC1(c2ccccc2)NC(=O)N(CC(=O)Nc2ccccc2C(=O)NC2CCCC2)C1=O (centres undefined),1,-2.3,0.5,1.2,4,1,-6,2,0,0
COC(=O)c1ccc(NC(=O)c2cc3sccc3n2C)cc1,1,.,-0.1,-0.3,17,.,0,-8,.,.
Fc1ccccc1NC(=S)NCc1ccccc1,-3,-0.2,0.0,2.1,-3,5,.,-2,9,.
O=C1CCN(CCc2ccccc2)CCN1[C@H](CSc1ccc(Br)cc1)c1ccccc1,-11,2.9,0.3,-2.1,-2,-6,1,-10,-8,.
Cc1ccc(C)c(OCC(=O)NNC(=O)CCN2CCN(c3ccccc3)CC2)c1,3,-3.1,-1.0,3.3,.,-1,-2,.,-7,16
COc1ccc(-n2c(-c3ccc(C)cc3)n[nH]c2=S)cc1,-7,.,1.3,-3.2,-4,.,.,-5,.,21
Cc1cc(N2CC(C)OC(C)C2)nc(C(C)C)n1 (centres undefined),6,-9.1,1.2,+,-6,11,-5,-22,8,1
ClC1=C(Cl)C(Cl)=C(Cl)C1=C/C=C/c1ccccc1,9,1.5,2.3,-1.4,63*,11,116*,-2,8,-2
C=CC[C@@H](CC(=O)N(CCO)Cc1ccccc1)C(=O)NC[C@H](OC(=O)[C@@H](CC=C)CC(=O)OC(C)(C)C)c1ccccc1,-8,-8.8,1.3,-0.9,.,-13,3,.,-33,-9
O=C(c1ccccc1)c1nn(-c2cccc(Cl)c2)ccc1=O,3,-0.3,0.4,-0.6,-7,1,.,6,20,0
CCOc1ccc(CNS(=O)(=O)c2cccs2)cc1OCC,6,-0.2,1.8,-0.2,-1,-4,-6,3,0,1
CCCCCCNC(=O)c1ccc(Br)o1,-4,-1.9,-0.2,-0.2,-20,10,-7,-23,15,.
O=S(=O)(NCc1ccco1)c1cccc(S(=O)(=O)N2CCCCC2)c1,-1,.,0.2,-2.8,18,.,-6,6,.,0
COc1ccc(NC(=O)c2c(NC(=O)CCC(=O)O)sc(-c3ccccc3)c2C)cc1,-3,-5.6,-0.4,3.2,-6,-27,-5,?,-24,11
COc1ccccc1NC(=O)CSCC(N)=O,-3,11,0.3,-3.1,-12,11,-5,-2,5,94*
COc1ccc(C=O)cc1Oc1nc(Cl)ncc1F,-4,-2.4,-0.2,-2.1,-12,4,0,8,1,7
Cc1nnc(SCC(=O)NC(=O)Nc2ccc3c(c2)OCCO3)s1,0,-1.2,-0.3,-1.8,-11,-11,-5,-8,-9,.
O=C(c1ccc([N+](=O)[O-])cc1)N1CCN=C1SCc1ccccc1,5,1.0,0.4,-5.1,5,-16,-1,-18,-7,.
CCCCc1nnc(NC(=O)CN2C(=O)C3CCCCC3C2=O)s1 (centres undefined),-5,-0.3,0.1,-6.5,-8,0,-6,-2,5,0
CC(=O)Nc1ccc(Nc2nnc(-c3ccc(C)c(S(=O)(=O)NCC4CCCO4)c3)c3ccccc23)cc1 (centres undefined),-1,10,0.1,-0.7,-6,7,5,-5,13,-4
CC(C)(C)c1ccc(OCC(=O)NNC(=O)CCc2ccccc2)cc1,1,.,0.8,-0.2,-13,.,-2,-13,.,-3
CCN1CCN(CC(=O)Nc2ccc3c(c2)OCCO3)C(=O)C1=O,9,0.3,0.3,1.0,-5,5,-5,-2,9,3
COc1cccc(NC(=O)CN(C)C(=O)c2ccc(NC(=O)CC3SC(N4CCCCC4)=NC3=O)cc2)c1 (centres undefined),-3,2.2,0.4,-0.7,-8,6,.,7,9,2
Cc1ccc([C@@H]2CC=C(C(=O)O)[C@H](c3ccccc3F)N2S(=O)(=O)c2ccc(C)cc2)cc1,-5,-0.6,-1.9,-1.4,.,-8,-3,.,-7,8
CC(C)[C@H](NS(=O)(=O)c1ccccc1)C(=O)OCC(=O)N1N=C(c2ccc(Cl)cc2)CC1c1ccco1 (some centres undefined),11,4.2,-1.0,-4.6,5,5,-13,7,-5,.
CSc1cccc(NC(=O)CCCn2c(=O)c3cccn3c3cccnc32)c1,2,4.4,-0.4,5.8,17,3,2,-7,-4,-24

Ordered by SMILES length (largest number first): some entries from above
SMILES,B2AR ag,Ecoli rRNA inh RFP,Bfl-1 A1 inh,LANA-H2B inh,T cruzi inh,Ecoli rRNA inh,Beta apoptosis,Calb FLC,Ecoli rRNA inh OD600,ALR inh
C=CC[C@@H](CC(=O)N(CCO)Cc1ccccc1)C(=O)NC[C@H](OC(=O)[C@@H](CC=C)CC(=O)OC(C)(C)C)c1ccccc1,-8,-8.8,1.3,-0.9,.,-13,3,.,-33,-9
COc1ccc(NC(=O)c2c(NC(=O)CCC(=O)O)sc(-c3ccccc3)c2C)cc1,-3,-5.6,-0.4,3.2,-6,-27,-5,?,-24,11
CCCCc1nnc(NC(=O)CN2C(=O)C3CCCCC3C2=O)s1 (centres undefined),-5,-0.3,0.1,-6.5,-8,0,-6,-2,5,0
CCCCCCNC(=O)c1ccc(Br)o1,-4,-1.9,-0.2,-0.2,-20,10,-7,-23,15,.

Continued:
SMILES,B2AR ag,Ecoli rRNA inh RFP,Bfl-1 A1 inh,LANA-H2B inh,T cruzi inh,Ecoli rRNA inh,Beta apoptosis,Calb FLC,Ecoli rRNA inh OD600,ALR inh
Cn1ncc2c(Nc3ccccc3Cl)nc(Nc3ccccc3Cl)nc21,5,2.9,0.4,-6.4,24,4,3,-17,16,-3
Cc1cccc(CNCc2ccccc2)c1,-1,-2.4,0.1,-2.5,1,7,-2,-2,4,-7
CCOC(=O)c1c(NS(=O)(=O)Cc2ccccc2)sc2c1CCCC2,10,.,0.3,-5.9,-5,.,1,17,.,32
CCN1C(=O)C2(Nc3ccccc3-c3nc4ccccc4n32)c2cc(OC)ccc21 (centres undefined),-8,.,-1.3,3.3,22,.,-2,-9,.,-34
O=C(O)Cc1c(-c2ccccc2Cl)c2cc(Br)ccc2[nH]c1=O,-6,11,0.5,-0.7,3,8,-6,2,6,5
COc1cc(/C=C/C(=O)OCC(=O)N2CC3(C)CC2CC(C)(C)C3)ccc1O (centres undefined),1,.,-0.4,-1.2,2,.,-6,-11,.,99*
Cn1cccc1Cc1nnc(SCC(=O)Nc2ccc(Cl)cc2)n1-c1ccc(F)cc1,-3,1.3,-0.8,-3.8,4,-4,-9,6,-9,17
Cc1ccc(OCC(=O)NCc2ccco2)c([N+](=O)[O-])n1,-7,-4.8,1.4,2.1,-7,5,-2,21,3,-3
O=C(CN1CCc2ccccc2C1)Nc1cc(S(=O)(=O)N2CCOCC2)ccc1N1CCCC1,2,0.4,-0.1,-5.8,26,-9,1,2,-4,-33
CCCCNS(=O)(=O)c1ccc(S(=O)(=O)N2CCC3(CC2)OCCO3)cc1,-1,.,0.2,-3.8,-2,.,-5,3,.,-3
COc1ccc(Cl)cc1NC(=O)CN(C)C(=O)Cn1[nH]c(=O)c2ccccc2c1=O,-4,6.3*,1.0,-8.9,.,-20*,8,.,-2.5*,-2
Fc1cccc(CCN2C(=S)NC[C@@H]2Cc2ccccc2)c1,-10,-22,0.0,5.0,-6,-48,-8,7,-73,-8
O=C(COC(=O)c1ccccc1C(=O)c1ccc(Cl)cc1)NCC1CCCO1 (centres undefined),1,-3.9,-0.3,-2.0,0,6,1,2,-12,3
CCOC(=O)N1CCN(C(=O)CCCCCn2c(=S)[nH]c3cc4c(cc3c2=O)OCO4)CC1,14,-3.5,0.7,-1.1,12,-3,5,-6,-9,.
Cc1cccc(-c2nc(C#N)c(NCc3ccco3)o2)c1,-5,.,0.3,-0.8,.,.,-6,-1,.,13
CCOc1cccc(-c2c(C(=O)N/N=C/c3ccsc3)nnn2-c2nonc2N)c1,-12,-5.8,1.0,-4.3,-17,2,.,3,3,0
COc1cc(N=CC2=C(O)c3ccccc3C2=O)cc(OC)c1,-2,4.5,-5.5,-0.4,3,5,-4,-3,9,2
CC(CCc1ccccc1)NCc1ccc(Cl)cc1Cl (centres undefined),0,-7.4,-1.2,-4.7,35,-36,5,-24,-49,3
Cc1cccc(NCc2nc(-c3ccccc3)no2)c1,-1,-2.3,0.0,-3.2,4,0,-2,-1,-18,91*
CCOC(=O)C1=C(C)NC(=O)NC1C1CC=CCC1 (centres undefined),-5,.,?,-2.9,-3,.,0,-4,.,.
O=C(COC(=O)/C=C/c1ccc2c(c1)OCO2)NC1CCS(=O)(=O)C1 (centres undefined),20,-5.1,0.9,0.2,-10,1,-2,-1,4,-9

Bioassay records as filed in PubChem BioAssay.

Some of the compounds tested (hit frequency here may not be typical).
